# Source: PubChem
# Rango complex inh – inhibitors of Rango-importin beta complex formation; Rango CFP/YFP FRET sensor + importin beta, 45 min; Potency, µM (doses to about 92.2 µM), for the others: at the top dose inhibition of complex formation; 340,000 compounds, 0.031% hits; AID 540263; active = rising FRET ratio curve, often small or poorly fitted; inconclusive = mostly compound fluorescence or quenching in the first reads; inactive = flat curves in all reads;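 also: potency is read from the fitted curve at half-maximal effect; 0% = DMSO wells and 100% = buffer wells lacking importin beta; nearly all actives have a fitted effect of over 15% in size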
# Target sequence (Q14974 whole entry, looked up): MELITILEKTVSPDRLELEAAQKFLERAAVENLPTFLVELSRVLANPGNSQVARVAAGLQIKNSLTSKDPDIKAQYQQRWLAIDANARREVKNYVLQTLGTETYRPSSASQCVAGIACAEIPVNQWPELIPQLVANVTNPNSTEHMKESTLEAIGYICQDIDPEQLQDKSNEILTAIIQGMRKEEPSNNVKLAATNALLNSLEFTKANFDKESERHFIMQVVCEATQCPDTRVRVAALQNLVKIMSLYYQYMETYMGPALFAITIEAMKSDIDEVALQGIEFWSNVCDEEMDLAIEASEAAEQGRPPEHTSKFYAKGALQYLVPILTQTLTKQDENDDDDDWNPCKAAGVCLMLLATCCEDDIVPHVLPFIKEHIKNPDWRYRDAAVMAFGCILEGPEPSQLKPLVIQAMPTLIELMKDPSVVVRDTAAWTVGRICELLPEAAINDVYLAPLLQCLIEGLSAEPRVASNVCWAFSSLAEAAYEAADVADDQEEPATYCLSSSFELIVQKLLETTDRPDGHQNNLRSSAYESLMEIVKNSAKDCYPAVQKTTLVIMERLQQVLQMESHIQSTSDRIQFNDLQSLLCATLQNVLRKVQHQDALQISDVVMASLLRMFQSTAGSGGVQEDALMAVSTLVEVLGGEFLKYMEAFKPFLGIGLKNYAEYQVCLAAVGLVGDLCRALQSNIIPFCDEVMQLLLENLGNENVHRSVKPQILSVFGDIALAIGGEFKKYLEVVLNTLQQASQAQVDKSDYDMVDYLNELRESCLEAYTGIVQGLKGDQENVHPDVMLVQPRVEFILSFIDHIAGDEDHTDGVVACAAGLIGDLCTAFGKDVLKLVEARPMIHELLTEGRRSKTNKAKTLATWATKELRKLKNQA
#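 FRET biosensor Rango (snurportin 1 IBB between N-terminal EYFP and C-terminal Cerulean), 50 nM in PBS/1 mM DTT/0.02% Tween-20/0.1% BSA, preincubated 5 min RT with compound; 0.125 microM importin beta added, 45 min RT, CFP/YFP FRET ratio read.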
# miR-21 reporter – miR-21 reporter, rising signal; HeLa miR-21 FLuc reporter, luciferase, 48 h; Potency, µM (titrated, usually from 38.3 µM), without a hit: at the highest dose reporter change, positive = more light; AID 2288; 340,000 tested, under 10 active; active = well fitted rising curve with a large enough effect; inconclusive = small, poorly fitted or top-dose-only effect; inactive = no such curve, though single readings can be large or run the other way;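 also: % of control where 0% means no effect; miR-21 action dims this reporter so a rising signal means less miR-21 action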
#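 HeLa cells stably expressing CMV-driven firefly luciferase with a downstream miR-21 binding sequence, endogenously expressing miR-21, were treated with titrations (up to about 40uM final) for 48 hours at 37 degree Celsius. Luciferase luminescence was read after lysis.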
# Rango dissoc inh – inhibitors of RanGTP-induced Rango-importin beta complex dissociation | Biochemical FRET Rango-importin beta, RanGTP-induced dissociation | 340,000 compounds, 0.071% hits | O95149+P62826 | Potency, µM (titrated, usually from 46.1 µM), for inactives: at the highest dose activity change, negative = inhibition; active means falling FRET ratio curve, often poorly fitted, with flat reads before Ran was added; inconclusive means other falling curves, or compound fluorescence or quenching; inactive means flat or rising ratio curve;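 also: potency is read from the fitted curve at half-maximal effect; % of control where 0% means no effect; nearly all actives have a fitted effect of over 45% in size; -100% = wells without RanGTP and RCC1; the record marks most hits as doubtful in a second field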
#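 Rango (0.1 uM)–importin beta (0.25 uM) complex; RanGTP-RCC1 trigger; 45 min RT; CFP/YFP FRET read.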
# GLA inh pH 4.5 – alpha-galactosidase A (human) inhibition, pH 4.5; P06280; purified enzyme, 4-MU-alpha-Gal fluorescence, pH 4.5; activity change, negative = inhibition, % at 105 µM; 230,000 tested, under 10 active; AID 1467; inconclusive = small, poorly fitted or top-dose-only inhibition, or a rising curve; inactive = flat fitted curve, though single readings scatter; no compound was filed as active;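 also: 0% = full activity with enzyme and -100% = basal without enzyme; dose as in the result columns while the protocol names 77 µM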
# The depositor's hits bear a star; ? = inconclusive; / = not tested or not shown; & = joins results of further samples. An excerpt, so the mix of outcomes need not match the whole.
SMILES,Rango complex inh,miR-21 reporter,Rango dissoc inh,GLA inh pH 4.5
CC(=O)NC(CC(=O)NNC(=O)COc1c(C)cccc1C)c1ccccc1 (stereo not drawn),0.3%,/,0%,/
Cc1ccnc(N2CCCC(C(=O)NCc3cccs3)C2)n1 (stereo not drawn),-2.9%,-1%,12%,-3
Cc1cccc(N2CCN(C(=O)C3COc4ccccc4O3)CC2)c1C (stereo not drawn),-2.4%,-19%,9%,-1
CN1C2CCC1CC(NC(=O)c1cc(S(=O)(=O)N(C)C)c(Cl)cc1Cl)C2 (stereo not drawn),-2.9%,/,-10%,/
COC(=O)C1=C(C)N(c2ccc(S(N)(=O)=O)cc2)C(=O)C1,11%,-1%,-14%,2
CSc1cccc(CN2CCN(Cc3ccc(F)c(F)c3)C(CCO)C2)c1 (stereo not drawn),-1.3%,-1%,-3%,1
CCc1nn(CCCC(=O)Nc2ccc(C)c(C)c2)c(=O)c2cc3occc3n12,2.2%,-11%,-14%,/
CCOc1ccc(OCc2cccc(C(=O)N3CCOCC3)c2)cc1,0.1%,-41%,-17%,-4
O=C(Oc1ccc2ccc(O)cc2c1)C1CCCCC1,?,-7%,27%,10
CCC1CCCCN1S(=O)(=O)c1ccc(C(=O)Nc2nnc(-c3cccs3)o2)cc1 (stereo not drawn),6.3%,0%,7%,-4
CCc1c(C)nc(SCC(=O)Nc2ccc3c(c2)OCCO3)[nH]c1=O,0.6%,6%,12%,0
Cc1ccc(NC(=O)C2=CC(c3cccs3)=NS(=O)(=O)N2C)cc1,-1.5%,-7%&4%,-2%,/
O=S(=O)(Cc1ccccc1Cl)N1CCCC1,2.9%,-2%,4%,6
O=C(/C=C/c1ccccc1)c1cc(Br)ccc(=O)c1O,1.8%,?,-16%,-12
Cc1cccc(N2CCN(Cc3nc(-c4ccc(F)cc4F)oc3C)CC2)n1,1.2%,2%,1%,-1
Cn1c2c(c(=O)n(C)c1=O)C(c1ccccc1F)C(C#N)=C(N)O2 (stereo not drawn),0.3%,-22%,-9%,4
COC(=O)C(NS(=O)(=O)c1ccc(F)cc1)c1ccccc1 (stereo not drawn),-0.1%,0%,7%,-7
COc1ccc(S(=O)(=O)N2CCC(C(=O)NCCc3ccccc3)CC2)cc1OC,0.8%,-2%,-1%,2
CCN(CC)S(=O)(=O)c1ccc(C(=O)N2CCN(CCN3C(=O)c4cccc5cccc(c45)C3=O)CC2)cc1,/,4%,/,-1
C=C1CC2(OC1=O)c1ccccc1CCc1ccccc12,2.1%,/,0%,/
COc1cccc(NC(=O)NCc2ccc(F)cc2)c1,0.4%,-34%,2%,1
COC(=O)Nc1[nH]ncc1[N+](=O)[O-],-0.6%,2%,20%,4
CCOC(=O)c1c(C)oc2ccc(OCc3cc(C(=O)OC)oc3C)cc12,0.5%,-2%,-2%,-6
CCN1C(=O)C2(SC(NC(C)=O)=NN2C(C)=O)c2cc(C)ccc21 (stereo not drawn),2.1%,-2%,0%,?
COc1ccc(C)cc1NC(=O)CSc1nc2scc(C)c2c(=O)[nH]1,-3.9%,8%,1%,/
O=C(O)c1ccc(C=NNC(=O)c2cccc3ccccc23)cc1,-2.3%,/,-9%,/
O=C(Cc1ccccc1)NNC(=O)Nc1cccc(Cl)c1,0.3%,5%,-2%,1
COc1ccc(NC(=O)O/N=C/c2c(C)nn(C(C)(C)C)c2C)cc1,-0.2%,-44%,0%,-16
Cc1coc(C)c1C(=O)CC1(O)C(=O)Nc2cc(Cl)cc(Cl)c21 (stereo not drawn),-1.5%,0%,-7%,-5
CCN(C(=O)CCS(=O)(=O)c1cccc2nonc12)c1ccc(C)c(C)c1,-4.2%,-5%,17%,/
COc1cccc(N(C(=O)CNC(=O)c2ccco2)C(C(=O)NC2CCCCC2)c2ccncc2)c1 (stereo not drawn),?,-3%,-12%,-3
C/C(CCc1ccccc1)=N\NC(=O)COc1ccccc1C,0.0%,-6%,-2%,1
Cn1c(C(=O)c2ccccc2)nc2ccccc21,-0.3%,-36%,-8%,/
O=C(N/N=C/c1cn(-c2ccccc2)nc1-c1ccc2c(c1)OCCO2)c1ccncc1,-3.8%,-49%,2%,3
O=C(CSc1nnc2scc(-c3ccccc3)n12)Nc1nsc(-c2ccc(Cl)cc2)n1,2.5%,/,-2%,/
CCOc1ccccc1NC(=O)Nc1cccc(NC(C)=O)c1,0.8%,5%,16%,-2
[O-][n+]1c2cc(C(F)(F)F)ccc2c2n1CCN=C2c1ccc(Cl)cc1,0.9%,/,1%,/
O=C(CN1C(=O)c2ccccc2C1=O)NCC(=O)Nc1ccccc1,3.4%,/,3%,/
Cc1nc(C)c(C(=O)N/N=C/c2cc(Br)ccc2O)s1,?,0%,?,-3
CCN(c1ccccc1)S(=O)(=O)c1ccc2c(c1)CCCN2C(C)=O,7.2%,-1%,?,/
COc1cc(NC(=O)c2cc(OC)c(OC)c(OC)c2)c(OC)cc1NC(=O)CN1CCCCC1,3.5%,7%,-4%,-20
Cc1ccc(C)c(NC(=O)CCn2cnnn2)c1,-0.6%,0%&-8%,-13%,-17
COc1ccc(C2CCCN2C(=S)Nc2ccc(C)cc2C)cc1OC (stereo not drawn),-0.4%,-2%,4%,0
Cn1c2c(c(=O)n(C)c1=O)C(c1ccc(Br)cc1)Nc1ccccc1O2 (stereo not drawn),-0.6%,-14%,-2%,6
C[C@@H]1CN([C@@H](C)CO)C(=O)c2cc(NS(C)(=O)=O)ccc2O[C@H]1CN(C)Cc1ccc(Oc2ccccc2)cc1,-1.6%,/,19%,/
O=C(NNC(=O)c1cccs1)c1cccnc1,-2.5%,-3%,-7%,/
Cn1c(=O)n(C)c2cc(C(=O)O)ccc21,?,-4%,17%,-4
O=C(Nc1ccccc1N1CCCCC1)c1ccc(OC(F)F)cc1,-1.9%,-4%,-19%,/
CC(=O)Nc1ccc(SCc2c(C)noc2C)cc1,-0.2%,6%,1%,/
CCC(Oc1ccccc1)C(=O)Nc1ccc(C)c(S(=O)(=O)N2CCOCC2)c1 (stereo not drawn),1.4%,/,12%,/
COc1cccc(N2CC(=O)N(NC(=O)CSc3nc(C)cc(C)c3C#N)CC2=O)c1,0.6%,-1%,-1%,1
CS(=O)(=O)N(Cc1nc(-c2ccc(F)cc2)no1)c1ccccc1Cl,1.5%,/,18%,/
CCN(CC(=O)Nc1cccc(OC)c1)CC(=O)Nc1ccc(Br)c(C)c1,-1.6%,11%,16%,/
O=C(Nc1ccc(Oc2ccsc2C(=O)O)cc1)c1ccccc1,-0.1%,2%,-3%,/
CCOC(=O)c1c(NC(=O)CN2CCN(C)CC2)sc(C(=O)Nc2ccccc2)c1C,-0.8%,-75%,-4%,-2
Cc1cc(CNC(=O)c2cccc3c2C(=O)c2ccc(-c4ccc(F)cc4OCc4ccccc4)cc2S3(=O)=O)c(C(F)(F)F)o1,?,/,0%,/
COc1ccc(CCN=C2SCC(=O)N2Cc2ccccc2)cc1OC,7.7%,2%,-6%,-2
Cc1onc(-c2ccccc2)c1C(=O)NCc1ccccc1F,-1.7%,-1%,5%,/
COc1ccc(NC(=O)COC(=O)c2ccc(S(=O)(=O)N(C)c3ccccc3OC)cc2)cc1,-1.3%,/,7%,/
CCOC(=O)c1cc2c(C)[nH]c(C)c2cc(C(=O)OCC)c1=O,1.0%,-2%,?,-8

# Sorted by molar mass (descending): part of the list above.
SMILES,Rango complex inh,miR-21 reporter,Rango dissoc inh,GLA inh pH 4.5
Cn1c2c(c(=O)n(C)c1=O)C(c1ccc(Br)cc1)Nc1ccccc1O2 (stereo not drawn),-0.6%,-14%,-2%,6
COc1ccc(CCN=C2SCC(=O)N2Cc2ccccc2)cc1OC,7.7%,2%,-6%,-2
Cc1onc(-c2ccccc2)c1C(=O)NCc1ccccc1F,-1.7%,-1%,5%,/
Cc1ccc(C)c(NC(=O)CCn2cnnn2)c1,-0.6%,0%&-8%,-13%,-17

# Continued:
SMILES,Rango complex inh,miR-21 reporter,Rango dissoc inh,GLA inh pH 4.5
Cc1cc(C)cc(N(C(=O)CNC(=O)c2ccco2)C(C(=O)NC2CCCCC2)c2cccnc2)c1 (stereo not drawn),-0.8%,-2%,-14%,/
CC(C)c1ccc(S(=O)(=O)N2CCN(C(=O)c3ccc(N4CCCC4)c([N+](=O)[O-])c3)CC2)cc1,-0.1%,0%,5%,/
CC(C)C1N(C(=O)N2CCOCC2)CCN1S(=O)(=O)c1ccccc1 (stereo not drawn),0.8%,2%,-12%,/
COc1ccccc1-c1coc2c(CN3CCN(CCO)CC3)c(O)ccc2c1=O,-0.7%,/,0%,/
Cc1nn(Cc2ccccc2Cl)c2sc(C(=O)NCc3ccc4c(c3)OCO4)cc12,0.4%,-44%,-5%,-1
Cc1oc(-c2ccc(Cl)cc2)nc1CN1CCC(C(=O)NCCCN2CCCC(C)C2)CC1 (stereo not drawn),-1.4%,-13%,-1%,/
O=C(NC1CCCCC1)c1nc2c(nnn2Cc2ccccc2Cl)c(=O)[nH]1,3.5%,-6%,-12%,1
Cn1nc(CC(=O)Nc2ccc(N3CCN(C(=O)OC(C)(C)C)CC3)cc2)c2ccccc2c1=O,-0.2%,12%,-1%,4
O=C(Cc1cccc2ccccc12)NN1C(=O)CSC1=S,-3.2%,-3%,-3%,-16
COc1ccc(NCc2nnc(SCC(=O)NNC(=O)c3ccc(C)cc3)n2C)cc1,1.9%,-3%,1%,4
O=C(NCc1nc(-c2ccccc2)cs1)c1ccccc1,1.1%,-17%,5%,5
CSc1nc(C)cc(Oc2ccc(=O)[nH]n2)n1,2.9%,-6%,13%,-3
O=C(NCC1CCCCC1)c1ccc(Cl)c(S(=O)(=O)N2CCOCC2)c1,3.3%,/,-9%,/
O=C(CSc1nc2c(cnn2-c2ccc(F)cc2)c(=O)[nH]1)N1CCOCC1,0.1%,-4%,-11%,-6
Cc1cnc(C(=O)NNC(=O)c2ccc(Br)cc2)cn1,0.8%,/,-8%,/
CN(C)S(=O)(=O)c1cccc(NC(=O)COC(=O)c2cc(-c3cccc(Br)c3)nc3ccccc23)c1,1.9%,-8%,-9%,5
CC(=O)c1ccc(S(=O)(=O)NCc2ccc(C(=O)NCC(c3ccccc3)N(C)C)cc2)cc1 (stereo not drawn),-0.2%,-5%,-8%,/
O=C1C(=O)N(c2cccc(Cl)c2)C(c2ccccc2[N+](=O)[O-])/C1=C(\O)c1ccccc1 (stereo not drawn),?,-35%,-19%,-3
CN(C)S(=O)(=O)n1cc(/C=C(\NC(=O)c2ccccc2Cl)C(=O)NCCCN2CCOCC2)c2ccccc21,-2.4%,6%,7%,/
CC(C)C(Cl)=NOC(=O)Nc1ccc(S(N)(=O)=O)cc1,0.3%,/,-16%,/
N#Cc1ccc(C(=O)Nc2nc3ccccc3[nH]2)cc1,0.7%,-42%,-17%,/
CCOc1ccc(S(=O)(=O)NCCC(=O)OCC(=O)Nc2cc(C)on2)cc1,2.7%,7%,16%,-3
COc1ccc(NC(=O)CNC(=O)Cc2ccccc2)cc1OC,-1.4%,-5%,10%,/
CCCNS(=O)(=O)c1ccc(OCC(=O)N2CCOCC2)cc1,2.0%,1%,13%,-3
CN(CC(=O)Nc1ccc(Cl)cc1)C(=O)c1cccc(S(=O)(=O)N2CCN(Cc3ccccc3)CC2)c1,-2.9%,/,15%,/
Nc1nc(C23CC4CCC(CC(C4)C2)C3)cs1,-4.6%,-7%,6%,-7
O=C(NCCc1ccccc1)C1CCN(C(=O)c2sccc2-n2cccc2)CC1,-5.8%,-9%,4%,7
COc1ccc(OC)c(S(=O)(=O)N(C)CC(=O)Nc2ccc3c(c2)OCCO3)c1,0.5%,-3%,-18%,4
O=C(Nc1ccccc1F)NC1CCN(Cc2nnnn2Cc2ccc(F)cc2)CC1,2.0%,-1%,2%,-4
COc1cc(CCC(=O)NCc2ccc(S(N)(=O)=O)cc2)cc(OC)c1OC,-1.2%,0%,5%,/

# 2 records drawn at random from those above, as already listed:
SMILES,Rango complex inh,miR-21 reporter,Rango dissoc inh,GLA inh pH 4.5
C/C(CCc1ccccc1)=N\NC(=O)COc1ccccc1C,0.0%,-6%,-2%,1
Cn1c2c(c(=O)n(C)c1=O)C(c1ccccc1F)C(C#N)=C(N)O2 (stereo not drawn),0.3%,-22%,-9%,4
